Rango dissoc inh: prevents RanGTP from dissociating the Rango-importin beta complex. hit rate 0.071% among 340,000. AID 540253. Biochemical FRET Rango-importin beta, RanGTP-induced dissociation. Potency, µM (doses to about 46.1 µM), for inactives: at the top dose activity change, negative = inhibition; active means falling FRET ratio curve, often poorly fitted, with flat reads before Ran was added; inconclusive means other falling curves, or compound fluorescence or quenching; inactive means flat or rising ratio curve;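 note: potency is the fitted concentration of half-maximal effect; % of control where 0% means no effect; nearly all actives have a fitted effect of over 45% in size; -100% = wells without RanGTP and RCC1; the record marks most hits as doubtful in a second field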
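FRET read at 45 min, room temperature: inhibitors block the CFP/YFP signal rise when RanGTP (0.6 uM Ran, 2 mM GTP, 0.2 uM RCC1) frees Rango (0.1 uM) from importin beta (0.25 uM). Pre-read after 5 min compound exposure flags interference.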
Rango complex inh: prevents formation of the Rango-importin beta complex | Q14974 | Rango CFP/YFP FRET sensor + importin beta, 45 min | Potency, µM (titrated, usually from 92.2 µM), for inactives: top-dose inhibition of complex formation | hit rate 0.031% among 340,000; active = rising FRET ratio curve, often small or poorly fitted; inconclusive = mostly compound fluorescence or quenching in the first reads; inactive = flat curves in all reads;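 note: potency is the fitted concentration of half-maximal effect; 0% = DMSO wells and 100% = buffer wells lacking importin beta; nearly all actives have a fitted effect of over 15% in size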
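FRET biosensor Rango (snurportin 1 IBB between N-terminal EYFP and C-terminal Cerulean), 50 nM in PBS/1 mM DTT/0.02% Tween-20/0.1% BSA, preincubated 5 min RT with compound; 0.125 microM importin beta added, 45 min RT, CFP/YFP FRET ratio read.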
GLA inh pH 4.5: inhibitors of human alpha-galactosidase A at pH 4.5 | P06280 | purified enzyme, 4-MU-alpha-Gal fluorescence, pH 4.5 | activity change, negative = inhibition, % at 105 µM | 230,000 tested, under 10 active; inconclusive = small, poorly fitted or top-dose-only inhibition, or a rising curve; inactive = flat fitted curve, though single readings scatter; no compound was filed as active;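 note: 0% = full activity with enzyme and -100% = basal without enzyme; dose as in the result columns while the protocol names 77 µM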
Target sequence (P06280 whole entry, looked up): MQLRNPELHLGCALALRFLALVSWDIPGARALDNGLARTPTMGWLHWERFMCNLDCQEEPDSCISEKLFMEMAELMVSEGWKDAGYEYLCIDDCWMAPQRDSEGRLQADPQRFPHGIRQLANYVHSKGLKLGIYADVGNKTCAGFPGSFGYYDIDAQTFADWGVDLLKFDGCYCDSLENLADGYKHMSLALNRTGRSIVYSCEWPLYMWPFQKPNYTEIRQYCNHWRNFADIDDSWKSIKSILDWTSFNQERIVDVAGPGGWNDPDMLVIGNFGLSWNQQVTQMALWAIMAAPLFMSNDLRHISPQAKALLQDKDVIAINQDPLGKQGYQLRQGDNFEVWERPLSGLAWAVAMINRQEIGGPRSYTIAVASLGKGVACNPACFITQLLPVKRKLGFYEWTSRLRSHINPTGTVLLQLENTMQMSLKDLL
miR-21 reporter: raises the signal of a miR-21 reporter. AID 2288. HeLa miR-21 FLuc reporter, luciferase, 48 h. 340,000 tested, under 10 active. Potency, µM (doses to about 38.3 µM), for the others: at the top dose reporter change, positive = more light; active = well fitted rising curve with a large enough effect; inconclusive = small, poorly fitted or top-dose-only effect; inactive = no such curve, though single readings can be large or run the other way;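 note: % of control where 0% means no effect; miR-21 action dims this reporter so a rising signal means less miR-21 action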
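HeLa cells stably expressing CMV-driven firefly luciferase with a downstream miR-21 binding sequence, endogenously expressing miR-21, were treated with titrations (up to about 40uM final) for 48 hours at 37 degree Celsius. Luciferase luminescence was read after lysis.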
Numbers without * were called inactive; ? = inconclusive; . = no result given; & = joins results of further samples.

SMILES	Rango dissoc inh	Rango complex inh	GLA inh pH 4.5	miR-21 reporter
CCOc1ccccc1NC(=O)CSc1nc2ccccc2c(=O)n1CC1CCCO1 (stereo not given)	0%	-3.4%	.	0%
CCCCNC(=O)C1CC(c2cccc(F)c2)=NO1 (stereo not given)	7%	4.8%	-19	-54%
Cn1cccc1C(=O)OCC(=O)N1CCc2ccccc21	-2%	-0.4%	.	.
COCCN(C(=O)COC(=O)c1ccc2[nH]c(C)c(C)c2c1)c1c(N)n(Cc2ccccc2)c(=O)[nH]c1=O	11%	?	.	.
C/C(=N\Nc1cc(N2CCOCC2)nc(C)n1)c1ccc(F)cc1	?	7.3%	.	4%
O=S(=O)(c1ccc(Cl)c(S(=O)(=O)N2CCCC2)c1)N1CCCC1	6%	-1.5%	-2	0%
CC1CCN(c2ccc3nnc(CCC(=O)N4CCN(c5ccccc5F)CC4)n3n2)CC1	-8%	2.7%	.	6%
COc1ccc(-c2nn(-c3ccccc3)cc2C(=O)OCC(=O)c2ccc(C)c([N+](=O)[O-])c2)cc1	9%	-0.1%	-1	-7%
Cc1ccc(OCC(=O)N2CCc3ccccc3C2)cc1	1%	-0.8%	.	-26%
CC1CCCN(C(=O)C(=O)Nc2ccc3nc4n(c(=O)c3c2)CCCCC4)C1 (stereo not given)	-10%	-1.5%	.	-3%
COc1cc(OC)cc(C(=O)NCC(=O)NCCN2C(=O)S/C(=C\c3ccc4c(c3)OCO4)C2=O)c1	6%	0.3%	.	.
COc1cc(NC(=O)COC(=O)C2CC(O)CN2S(=O)(=O)c2ccc(Cl)cc2)c(C)cc1[N+](=O)[O-] (stereo not given)	7%	2.8%	.	.
CN(C)c1nc(C(=O)NN)nc(N(C)C)n1	?	0.3%	8	-3%
COc1cccc2cc(S(=O)(=O)c3ccc(C)cc3)/c(=N/NS(=O)(=O)c3ccc(C)cc3)oc12	1%	1.8%	-2	-1%
CCN1C[C@@H]2[C@@H]3C(=O)N(C)C(=O)[C@@H]3[C@](C)(C1=O)N2C(=O)c1ccc(Br)cc1	-1%	-4.1%	.	.
COc1cc(OC)cc(C(=O)Nc2ccc(NC(=O)c3ccco3)c(C)c2)c1	0%	-0.6%	.	-46%
CCCCC(=O)Nc1ccc(C(=O)NNC(=O)c2cccs2)cc1	-4%	0.5%	0	-14%
O=C(CN(C(=O)CNC(=O)c1ccco1)c1cccc(F)c1)NC1CCCCC1	8%	4.6%	.	2%
Cc1ccccc1CC(=O)N1CCCc2ccccc21	27%	-0.5%	.	1%
COC(=O)C1=C(C)OC(N)=C(C#N)C1c1cc(OC)c(OCC(N)=O)cc1Cl (stereo not given)	?	?	-2	-3%
COc1cc(=O)n(C)c2ccccc12	-1%	-1.4%	-3	-5%
CCOC(=O)C(Cc1ccc(NC(C)=O)cc1)N1C(=O)c2ccccc2C1=O (stereo not given)	-10%	-1.7%	.	.
Cc1cccn2c(=O)c3cc(C#N)c(=O)n(CCCN4CCOCC4)c3nc12	?	?	?	0%
Cc1ccc(S(=O)(=O)c2ccsc2NC(=O)c2ccccc2)cc1	-2%	0.1%	.	.
Cc1nnc2ccc(-c3cccc(NC(=O)c4ccc(Br)o4)c3)nn12	0%	-0.6%	3	15%

Following part.
SMILES	Rango dissoc inh	Rango complex inh	GLA inh pH 4.5	miR-21 reporter
COc1ccc(C(=O)c2ccc(OC)c(OC)c2)cc1	1%	0.4%	-3	-20%
COc1ccc(/C=C(\C#N)C(=O)OCCNC(=O)c2ccncc2)cc1	1%	-0.2%	-1	0%
Cc1ccc(C(C)C)cc1S(=O)(=O)Nc1cccnc1	0%	-0.6%	.	-7%
CCN(CC)CCNC(=O)c1ccc(NC2=NC3CS(=O)(=O)CC3S2)cc1 (stereo not given)	0%	-3.7%	0	2%
CC(C)(C)c1ccc(-c2nc(-c3ccncc3)no2)cc1	-10%	0.3%	1	-53%
CCN(CC)S(=O)(=O)c1ccc(NS(=O)(=O)c2cccc(C)c2)cc1	-5%	4.6%	2	-13%
CCCCN(C(=O)CN1C(=O)C2CCCCC2C1=O)c1c(N)n(Cc2ccccc2)c(=O)[nH]c1=O (stereo not given)	-4%	-2.2%	.	.
O=C(CN1CCN(C/C=C/c2ccccc2)CC1)Nc1ccc(F)cc1F	9%	1.7%	2	0%
COC(=O)c1ccc(CN2C(=O)C3CCCCC3C2=O)o1 (stereo not given)	2%	-0.6%	-2	25%
Cc1ccc(NC(=O)CN(C)CC(=O)NC2CCCc3ccccc32)cc1 (stereo not given)	4%	2.5%	2	-4%
O=C(COc1ccccc1C(=O)O)Nc1ccc(SC(F)F)cc1	-4%	1.0%	0	-15%
CC1CN(CCCCOc2ccc(Cl)c3ccccc23)CC(C)O1 (stereo not given)	-4%	4.8%	.	6%
CCC/C(C(=O)NCCO)=C1/c2ccccc2C(=O)N1c1ccccc1	-11%	-0.2%	.	.
C[C@@H](CO)NC(=O)c1ccc2c3n(nc2c1)-c1ccccc1CO3	20%	-0.5%	6	18%
CN(CC(=O)Nc1ccc(F)cc1[N+](=O)[O-])C1CCS(=O)(=O)C1 (stereo not given)	-9%	1.0%	.	.
NS(=O)(=O)c1cccc(NC(=O)COC(=O)Cn2cnc3ccccc32)c1	-1%	-0.7%	4	0%
CCc1ccc(-c2cc(C)no2)cc1S(=O)(=O)NC(C)Cc1ccco1 (stereo not given)	?	-2.0%	.	-2%
CCOC(=O)c1ccc(/[N+]([O-])=C/c2ccccc2)cc1	7%	2.7%	.	.
O=C(Cn1cc(C(F)(F)F)ccc1=O)N1CCN(S(=O)(=O)c2ccccc2)CC1	0%	-1.4%	-5	0%
O=C(Nc1ccc(Br)cc1)C1CC=CCC1C(=O)OCC1CCCO1 (stereo not given)	-2%	4.7%	-1	-6%
O=C(Nc1cccc2ccccc12)N1CCN(c2ccccc2)CC1	-4%	1.8%	-6	-4%
COc1ccc(C(=O)NC2CCCCC2)cc1S(=O)(=O)N1CCCC1	0%	1.6%	1	-4%
CCC(Oc1ccccc1)C(=O)Nc1nnc(S(=O)(=O)N2CCCCC2)s1 (stereo not given)	3%	1.5%	.	1%
CCN(CC(=O)Nc1ccccc1Br)Cc1nc2ccccc2c(=O)[nH]1	8%	3.0%	-7	-11%
CCOc1ccc2c(c1)C(c1ccc(C)cc1)=NNC(c1ccc(OC)cc1)=N2	14%	2.9%	2	-26%

(next part)
SMILES	Rango dissoc inh	Rango complex inh	GLA inh pH 4.5	miR-21 reporter
CCOC(=O)N1CCN(S(=O)(=O)c2ccc(OC)c(Cl)c2Cl)CC1	-7%	-0.1%	0	-10%
CCOC(=O)C1CCCN(S(=O)(=O)c2c(C)[nH]c(C)c2C(=O)N2CCCC2)C1 (stereo not given)	7%	3.3%	.	1%
CCCOC(=O)C1C2C=CC(C2)C1C(=O)OCC(=O)c1ccccc1 (stereo not given)	-5%	-1.1%	0	0%
COc1ccccc1NC(=O)COc1ccccc1	-6%	0.1%	-8	-40%
O=C(CN1C(=O)NC2(CCCCC2)C1=O)N1CCc2ccccc2C1	-9%	0.7%	1	-6%
COc1ccc(N(C(=O)c2snc(C(N)=O)c2N)C(C(=O)NC2CCCC2)c2cccs2)c(OC)c1 (stereo not given)	-22%	-1.0%	.	-8%
CCOC(=O)c1ccc(NC(=S)NC2CCCC2)cc1	3%	-0.4%	3	-34%
Cc1ccc(C(=O)N2CCC(C)CC2)cc1S(=O)(=O)N1CCCCC1	3%	1.6%	.	-5%
C=CCNc1nc(-c2ccccc2)nc(-n2ccnc2)n1	4%	0.4%	1	-5%
CCN(CC)c1ccc(C=C2SC(=S)NC2=O)cc1	?	?	.	.
Fc1ccccc1N1CCN(C2CCN(Cc3c[nH]c4ccccc34)CC2)CC1	-21%	-0.5%	-5	1%
CC(=O)NC(CCS(C)(=O)=O)C(=O)Nc1cccc(Cl)c1Cl (stereo not given)	2%	-0.3%	8	0%
C(=C\c1ccccc1)/CSc1ccccn1	-10%	-2.8%	-6	-41%
COc1ccc(-c2nc(C(N)=O)c3[nH]c(=O)n(-c4cccc(C)c4)c3n2)c(OC)c1	9%	0.0%	3	-10%
O=C1C=C(c2ccccc2)CC(/C=C/c2ccccc2)C1 (stereo not given)	-18%	-2.1%	-4	-17%
Cc1ccc(-c2nc3cccnc3s2)cc1NS(C)(=O)=O	-4%	?	-1	-61%
Cc1ccc(NC(=O)c2ncn(CCCNCC3CCCO3)n2)cc1C (stereo not given)	-4%	2.6%	.	.
O=C(C1=C(O)C(=O)N(CCN2CCOCC2)C1c1cccs1)c1cc2ccccc2o1 (stereo not given)	-10%	-3.8%	.	.
CCOc1ccc2c(S(=O)(=O)O)cccc2c1[N+](=O)[O-]	2%	2.7%	.	.
COCCNC(=O)C(c1ccncc1)N(C(=O)Cn1nnc2ccccc21)c1ccc(OC)cc1 (stereo not given)	-9%	2.7%	2	-10%
O=c1oc(-c2cccs2)nc2sc3c(c12)CCCCC3	?	?	-2	-12%
CN(CC(=O)NCc1ccncc1)S(=O)(=O)c1ccc(F)cc1	-16%	0.0%	-4	0%
CCOc1ccc(C(=O)COC(=O)c2c(-c3ccccc3)noc2C)cc1	0%	-0.5%	.	.
COC(=O)c1cc2c([nH]c1=O)CCCC2=O	10%	3.0%	.	.
CC(=NCCc1ccccc1)C1=C(O)C(c2ccccc2)OC1=O (stereo not given)	17%	-3.7%	3	-6%

Next section.
SMILES	Rango dissoc inh	Rango complex inh	GLA inh pH 4.5	miR-21 reporter
COC(=O)c1cccc(C23CC4(C2)[C@H](CN(Cc2cccnc2)[C@@H]4c2ccccc2)C3c2ccc(Cl)nc2)c1 (stereo not given in full)	-12%	5.5%	-8&-5	15%
Cc1ccc(C(=O)CSc2nc(C)cc(=O)[nH]2)cc1	-1%	-3.4%	5	-15%
CC(c1nnc(Sc2nnnn2-c2ccccc2)n1-c1ccc(F)cc1)N(C)C (stereo not given)	12%	?	-2	0%
Cc1ccc(S(=O)(=O)c2nc(S(C)(=O)=O)sc2N2CC(C)OC(C)C2)cc1 (stereo not given)	-6%	-0.8%	.	9%
CC(O)c1nc2ccccc2n1C/C=C/c1ccccc1 (stereo not given)	-1%	-5.8%	-3	-13%
O=c1c2cc(Cl)ccc2[nH]c(=S)n1Cc1ccccn1	?	-1.0%	2	-34%
CN(C)S(=O)(=O)c1ccc(-c2csc(-c3cccnc3)n2)cc1	8%	0.8%	-6	-22%
O=C(CC1CS(=O)(=O)CC1CC(=O)Oc1ccccc1F)Oc1ccccc1F (stereo not given)	-6%	-4.2%	0	-8%
CSc1ccccc1OCc1cc(C(=O)N(C)Cc2ccc3nsnc3c2)no1	2%	-0.1%	.	-37%
COc1ccc(S(=O)(=O)N2CCCN(C)CC2)cc1	-1%	-0.3%	.	-3%
CCOC(=O)c1cc(-c2ccccc2C)nn1Cc1cc(C)no1	16%	-0.4%	.	.
COc1ccc(-c2cc(C(F)(F)F)c(C#N)c(SCC(=O)O)n2)cc1OC	.	.	-1	1%
Cc1sc2ncnc(OCC(=O)N3CCN(S(=O)(=O)c4ccccc4)CC3)c2c1C	0%	3.4%	2	-4%
CCOCC(=O)N1CCC(Cc2ccccc2)CC1	19%	-0.5%	3	-1%
O=[N+]([O-])c1cccc(-c2ccc(CN3CCCCC3)o2)c1	-1%	2.7%	.	-10%
O=S(=O)(NCCc1csc(-c2cccnc2)n1)c1cc(F)ccc1F	-12%	-2.6%	.	-9%

Source: PubChem BioAssay (National Center for Advancing Translational Sciences (NCATS))

Only part of the results is shown; count on the stated rates, not on these rows.
